# A1 inh = caspase 3/7 activation in MEF A1-2A-BIM cells, primary screen, A1 inhibitor project, cell-based, luminescence, HTS | 330,000 tested, 0.066% active | caspase activation, % (concentration not given with the values) | AID 2462, 2010 | Caspase-Glo 3/7 luminescence, 3 h; percent of clofoctol response, vehicle zero;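 active = over half of replicate activation scores above 10%, or exactly half above 10 with the replicate mean above 10; inconclusive = replicate mean below 10 yet half the replicates above 10; inactive = over half of replicates below 10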;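 note: wells of about 30 µL received 50 nL stock; many hits fall short of the cut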
# RanGTP-Impb inh = inhibitors of RanGTP-importin-beta interaction, primary screen, biochemical, FRET, CFP-Ran, YFP-importin-beta, homogeneous; inhibition, % (no concentration beside the values); cell-free CFP-Ran/YFP-importin-beta FRET ratio; Ran GTPase (GTP-bound) - importin-beta complex; 300,000 tested, 1.1% active;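 active = most replicates above 15%; inconclusive = exactly half above 15%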;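 note: 0% = DMSO wells and 100% = Ran loaded with GDP instead of GTP; wells of about 40 µL received 100 nL stock; the first replicate is given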
# Beta cell apopt = inhibitors of cytokine-induced beta cell apoptosis, primary screen, luminescence; INS-1E cytokine-induced death, ATP luminescence, 48 h; percent of positive-control rescue, neutral wells zero; protection from apoptosis, % (concentration not given with the values); 300,000 tested, 0.8% active; AID 435005, 2010;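 active = all replicates at 75% or more, or half of them and the mean; inconclusive = half reach 75% but not the mean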;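 note: 0% = cytokine-treated negative control wells and 100% = positive control rescue; higher means more ATP so stronger rescue from cytokine killing; wells of about 40 µL received 100 nL stock; the first replicate is given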
# LANA-H2B inh = blockers of LANA interaction with H2A/H2B – biochemical, FP readout, HTS, primary screen | cell-free LANA-H2A/H2B peptide, fluorescence polarization | 320,000 tested, 0.6% active | inhibition, % (no concentration beside the values) | AID 2629, 2010; in the data active = inhibition mostly above about 10%, no sharp cut-off; inactive = mostly below about 6.7%;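 note: stock transfer was 7.5 nL into about 10 µL; 0% = median of vehicle wells and 100% = median of positive control wells; one replicate is shown; the record names a cut of 25% in any replicate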
# Calb FLC = C. albicans growth inhibition with fluconazole, primary screen, CaCi-2 strain, Alamar Blue fluorescence | C. albicans CaCi-2 (fluconazole-resistant clinical isolate) + fluconazole, 48 h | growth inhibition, % (concentration not given with the values) | 300,000 tested, 0.57% active | AID 1979, 2009;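 active = most replicates above 75%; inconclusive = exactly half above 75%; inactive = most below 75%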;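 note: all wells also contain fluconazole at 8 µg/ml as a sub-toxic cotreatment; 0% = median of DMSO wells and 100% = median of geldanamycin control wells; wells of about 8 µL received 7.5 nL stock; the first replicate is given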
# T cruzi repl = inhibitors of intracellular T. cruzi growth, primary screen, luminescence, NIH3T3 host cells; inhibition, % (no concentration beside the values); T. cruzi beta-gal in NIH3T3, 90 h; 300,000 tested, 1.4% active;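 active = mean inhibition across valid replicates above about 55%, limit read from the data; inconclusive = mean below that limit but half or more replicates reach it; inactive = mean below it, under half of replicates reach it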;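 note: signal also drops with host cell toxicity which is not excluded here; 0% = plate median of DMSO wells and 100% = zero luminescence signal; higher percent means less beta-gal luminescence so fewer parasites; stock transfer was 50 nL into about 50 µL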
# MLL AF4-AF9 inh = inhibitors of AF4 peptide binding to AF9, primary screen, biochemical, AlphaScreen, biotin-AF4 peptide, FLAG-AF9, single point; Protein AF-9 (Homo sapiens), P42568; inhibition, % at 10 µM; 350,000 tested, 0.47% active; AID 651704, 2012;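 active = every replicate reaching a set inhibition limit, whatever the replicate mean, cut at about 25% in these data; inconclusive = mean inhibition reaches that limit but some replicates miss it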;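 note: 0% = plate neutral control median and 100% = total signal loss; the record names both 10 and 1 µM as test concentration; the first replicate is given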
# Target sequence (P42568 whole entry, looked up): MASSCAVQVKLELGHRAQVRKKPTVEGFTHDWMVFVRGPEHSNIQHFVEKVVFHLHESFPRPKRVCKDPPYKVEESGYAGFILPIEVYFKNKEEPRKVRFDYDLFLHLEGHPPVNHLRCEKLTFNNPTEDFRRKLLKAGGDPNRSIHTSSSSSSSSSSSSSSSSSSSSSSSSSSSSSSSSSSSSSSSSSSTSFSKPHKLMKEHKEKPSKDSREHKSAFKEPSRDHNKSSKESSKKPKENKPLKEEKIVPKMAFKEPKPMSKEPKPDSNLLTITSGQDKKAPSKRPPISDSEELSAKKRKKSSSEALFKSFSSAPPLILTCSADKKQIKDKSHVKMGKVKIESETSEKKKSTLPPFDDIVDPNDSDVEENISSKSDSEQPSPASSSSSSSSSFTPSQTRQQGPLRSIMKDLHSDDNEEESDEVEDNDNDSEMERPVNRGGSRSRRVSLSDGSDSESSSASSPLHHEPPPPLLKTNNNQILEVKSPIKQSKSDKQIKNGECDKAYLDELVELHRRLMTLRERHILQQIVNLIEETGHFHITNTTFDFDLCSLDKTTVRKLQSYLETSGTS
# Vif A3G = inhibitors of Vif binding to APOBEC3G peptide, primary screen, biochemical, TR-FRET, GST-Vif 1-94, biotin-A3G peptide, dose response retest (AID 1117319); Virion infectivity factor (Human immunodeficiency virus type 1 group M subtype B (isolate …; 260,000 tested, 0.57% active; TR-FRET GST-Vif / biotin-A3G peptide binding; higher % means a stronger effect; test concentration not given here; strong numbers were not always called active; inhibition, %, or IC50 in µM where a hit was titrated;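 active = above the screen mean plus three standard deviations and confirmed in dose response; inconclusive = results disagree or hit not tested in dose response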;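 note: Vif residues 1-94 fused to GST binding biotinylated APOBEC3G peptide 110-148; 0% = full assay without inhibitor and 100% = GST in place of GST-Vif; retest series ran down from 100 µM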
# Starred values were filed as active, the others as inactive; ? = inconclusive; . = not tested or not shown.
# Below each compound: A1 inh	RanGTP-Impb inh	Beta cell apopt	LANA-H2B inh	Calb FLC	T cruzi repl	MLL AF4-AF9 inh	Vif A3G
1. CCOC(=O)/C=C/c1ccc2c(c1)S(=O)(=O)N(Cc1ccc(OC)cc1)[C@H]2CC(=O)OCC
    1.1	0.0	1	1.8	-3	0	-1.1	.
2. Cc1ccc(C(=O)C(C)OC(=O)Cn2[nH]c(=O)c3ccccc3c2=O)cc1C (stereo not given)
    -0.5	-2.1	3	-3.1	-3	-8	-0.9	.
3. CN(C)CCCn1c(SCC(=O)Nc2nc(-c3cccc(Br)c3)cs2)nc2ccccc2c1=O
    1.4	4.9	15	0.6	-4	68*	35*	-5%
4. O=C1N(Cc2cccnc2)C[C@@H]2C[C@@H](c3ccc(-c4ccccc4)cc3)N3CCC[C@@]123
    0.5	2.7	0	-5.1	-1	40	6.3	.
5. O=C(NC1CC2CCC1C2)C1COc2ccccc2O1 (stereo not given)
    -0.8	1.5	2	1.5	1	-3	.	-7%
6. O=C(COC(=O)C1CCN(c2ccc(C(F)(F)F)cn2)CC1)Nc1cc(F)ccc1F
    -0.9	3.5	-1	-5.9	12	2	-1.9	0%
7. O=C(O)c1ccccc1N1C(=O)c2cccc3cccc(c23)C1=O
    0.2	-3.4	-9	3.8	-3	1	-5.1	.
8. COC(=O)c1cc(OC)c(OC)cc1NC(=O)Nc1ccc(OC)cc1OC
    0.1	-15	.	-15	27	-15	-5.3	2%
9. CCCn1c(CN2CCN(C(=O)c3ccco3)CC2)nc2c1c(=O)n(C)c(=O)n2C
    0.8	2.0	4	5.8	-2	-6	-3.8	-5%
10. O=C(COC(=O)Cn1ccc(=O)[nH]c1=O)Nc1ccc(F)cc1
    0.1	.	-2	0.5	.	.	-0.8	-4%
11. Cc1ccc2c(c1)N(CC(=O)NCc1ccco1)C(=O)CO2
    0.5	-0.6	-3	-3.2	-8	-3	.	-13%
12. O=C(Nc1cccc2nsnc12)c1ccc2c(c1)OCCO2
    -5.9	2.5	-3	-3.4	-19	-14	.	-2%
13. O=C(CN1C(=O)c2ccccc2S1(=O)=O)c1ccc(Cl)cc1Cl
    -8.3	-1.4	-1	-1.0	-1	-4	-1.8	.
14. CCOC(=O)/C=C/C(=O)OCC(=O)Nc1cccc(Br)c1
    1.1	-3.7	-12	-3.9	21	-31	0.7	-10%
15. CCc1cccc(C)c1NC(=O)CSc1nc(-c2ccccc2F)nc2nc[nH]c12
    0.1	0.0	-8	-0.4	-22	12	.	.
16. C=CCOC(=O)C1=C(C)NC(SCC(=O)OCC)=C(C#N)C1c1ccc(O)c(OC)c1 (stereo not given)
    .	-2.2	.	.	7	16	.	17%
17. O=C(NN=C(c1ccccc1)c1ccccc1)C(CCl)C1CCCCC1 (stereo not given)
    0.3	.	-17	0.1	.	.	-3.9	.
18. COc1ccc(C(O)P(=O)(O)CCc2ccccc2)cc1 (stereo not given)
    0.3	?	-5	0.3	0	-3	.	24%
19. CC(C)(C)[C@H]1COC(=O)CC/C=C\C[C@@H](CC(=O)N(CCO)Cc2ccccc2)C(=O)N1
    0.3	.	-1	5.3	.	.	-0.2	.
20. COc1ccccc1-n1c(=S)sc2c(=O)n(Cc3ccco3)c(SC)nc21
    -0.4	1.9	15	0.1	7	22	.	17%
21. O=C(NS(=O)(=O)c1ccccc1)c1ccccc1
    0.0	0.9	-8	1.8	-8	-11	.	31%
22. COc1cc(NC(=S)NCc2ccc(S(N)(=O)=O)cc2)cc(OC)c1
    -0.6	-5.5	.	7.3	-2	3	2.0	-12%
23. CCOC(=O)CSc1nc2ccc(C)cc2cc1C#N
    -1.1	-0.5	-1	-1.7	-10	17	2.3	-4%
24. COc1cccc(OC)c1C(=O)OCC(=O)/C(C#N)=C(\C)N
    -0.5	-0.5	-1	1.6	-18	-4	1.3	1%
25. CCCn1c(SCC(=O)Nc2cc(C)on2)nc2c1c(=O)n(C)c(=O)n2C
    -0.1	1.5	-2	-4.9	2	-4	.	-3%
26. COC(=O)c1cccc(Oc2cccc(Cl)n2)c1
    -1.1	0.9	-4	3.9	31	6	-0.5	-7%
27. O=C1CCC(C(=O)N2CCN(c3cnccn3)CC2)CN1CCc1ccc(Cl)cc1 (stereo not given)
    .	-1.6	.	.	4	-7	6.7	.
28. Cc1c(C(=O)N2CCCCC2)c(S(=O)(=O)NCc2ccc(Cl)cc2)c(C)n1C
    0.3	-0.3	3	-2.7	0	3	1.2	.
29. COc1ccc(NC(=O)COC(=O)Cn2c(C)nc3ccccc32)cc1OC
    -0.6	-2.5	-3	-1.6	-2	-12	.	6%
30. O=C(NC(=S)N1CCN(c2ccc(C(F)(F)F)cc2[N+](=O)[O-])CC1)c1cccs1
    -0.1	-1.3	16	1.4	-34	13	.	-6%

# Sorted by length of the SMILES (high to low): part of the list above.
# Below each compound: A1 inh	RanGTP-Impb inh	Beta cell apopt	LANA-H2B inh	Calb FLC	T cruzi repl	MLL AF4-AF9 inh	Vif A3G
6. O=C(COC(=O)C1CCN(c2ccc(C(F)(F)F)cn2)CC1)Nc1cc(F)ccc1F
    -0.9	3.5	-1	-5.9	12	2	-1.9	0%
2. Cc1ccc(C(=O)C(C)OC(=O)Cn2[nH]c(=O)c3ccccc3c2=O)cc1C (stereo not given)
    -0.5	-2.1	3	-3.1	-3	-8	-0.9	.
15. CCc1cccc(C)c1NC(=O)CSc1nc(-c2ccccc2F)nc2nc[nH]c12
    0.1	0.0	-8	-0.4	-22	12	.	.
25. CCCn1c(SCC(=O)Nc2cc(C)on2)nc2c1c(=O)n(C)c(=O)n2C
    -0.1	1.5	-2	-4.9	2	-4	.	-3%
14. CCOC(=O)/C=C/C(=O)OCC(=O)Nc1cccc(Br)c1
    1.1	-3.7	-12	-3.9	21	-31	0.7	-10%

# Back to the main list with the 2 entries that preceded the break.
# Below each compound: A1 inh	RanGTP-Impb inh	Beta cell apopt	LANA-H2B inh	Calb FLC	T cruzi repl	MLL AF4-AF9 inh	Vif A3G
29. COc1ccc(NC(=O)COC(=O)Cn2c(C)nc3ccccc32)cc1OC
    -0.6	-2.5	-3	-1.6	-2	-12	.	6%
30. O=C(NC(=S)N1CCN(c2ccc(C(F)(F)F)cc2[N+](=O)[O-])CC1)c1cccs1
    -0.1	-1.3	16	1.4	-34	13	.	-6%
31. CNc1nc(-c2ccc(S(=O)(=O)N3CCCCC3)cc2)cs1
    -2.7	.	-1	15*	.	.	-0.9	-3%
32. O=C(NNS(=O)(=O)c1ccc([N+](=O)[O-])cc1)C(=O)Nc1cccc(C(=O)O)c1
    0.1	-1.5	-3	-0.7	-10	-3	-7.0	.
33. COC(=O)COc1ccc(S(=O)(=O)NCc2ccc3c(c2)OCO3)cc1C
    0.2	2.1	-3	-3.4	-28	-5	3.9	.
34. CCN(CC)S(=O)(=O)c1ccc(Cl)c(NC(C)=O)c1
    0.2	-3.0	-7	-7.3	1	6	1.2	18%
35. O=C(CCC(=O)N1CCCCC1)Nc1nnc(C2CCCCC2)s1
    0.9	-1.0	.	3.2	-1	-5	-4.9	.
36. CCOC(=O)C1(Cc2ccccc2C)CCCN(C(=O)c2cc(CC)nn2C)C1 (stereo not given)
    0.3	-0.8	-6	-1.5	24	7	0.2	11%
37. CCn1c(SCc2cccc(F)c2)nnc1-c1ccncc1
    0.3	0.8	-2	0.5	-8	-1	-1.0	-14%
38. COC(=O)C1C(=O)/C(=C/N(C)C)C(=O)CC1(C)C (stereo not given)
    -0.2	-1.1	-5	-2.4	2	-2	-1.2	6%
39. CCOC(=O)C1(CCOC)CCN(Cc2ccncc2)CC1
    0.4	6.4	-6	11	-2	1	-1.4	-12%
40. O=C(N/C(=C\c1ccc(Cl)cc1)C(=O)N1CCCCC1)c1ccco1
    -1.1	2.0	0	9.2	13	-13	-2.3	.
41. S=C(NC1CCCCC1)N1CCN(c2ncccn2)CC1
    0.6	-7.7	0	2.4	6	.	-1.6	-5%
42. NS(=O)(=O)c1ccc(CNC(=O)/C=C/c2ccccc2)cc1
    0.2	8.9	-8	1.4	-11	-16	.	4%
43. O=C(CCN1C(=O)/C(=C\c2ccccc2F)SC1=S)Nc1ccc(C(=O)O)c(O)c1
    -1.1	0.9	3	-1.9	1	-6	12	.
44. COC(CNC(=O)[C@H](CSCc1ccccc1)N1Cc2ccccc2C1=O)OC
    -0.5	4.7	2	2.8	-2	-13	-1.6	8%
45. CC[C@@]1(C(=O)OC)N[C@H](CN(C)C(=O)Nc2ccccc2)[C@@H]2C(=O)N(C)C(=O)[C@@H]21
    0.1	.	-6	-0.4	.	.	2.1	-1%
46. CCc1ccc2nc(NC(=O)c3cc(C)on3)sc2c1
    -0.9	-1.0	13	3.2	46	-22	.	-2%
47. CCOC(=O)N1CCN(C(=O)c2ccc(CS(=O)c3ccccc3)o2)CC1 (stereo not given)
    0.2	2.1	-3	4.5	0	-13	-6.3	-2%
48. CCCOc1ccc(Cn2c(=O)oc3ccc(C)cc32)cc1
    1.3	0.3	.	-0.4	-6	21	-1.6	.
49. Cc1ccccc1NC(=S)NC(NC(=O)C(C)(C)C)C(Cl)(Cl)Cl (stereo not given)
    0.4	?	1	3.7	2	3	.	6%
50. O=C(Nc1ccc(OCC(=O)N2CCN(S(=O)(=O)c3ccccc3)CC2)cc1)c1ccco1
    -0.4	5.3	-3	3.7	-1	-2	.	8%
51. COCCCn1c(C)nnc1SCC(=O)Nc1ccc(C(C)=O)cc1
    0.4	-2.0	-3	-5.7	10	-9	-1.7	.
52. COc1ccc2oc(-c3ccc(C)c(NC(=O)c4ccc(N5CCOCC5)c([N+](=O)[O-])c4)c3)nc2c1
    -0.7	?	8	-9.6	4	15	.	2%
53. Cc1ccc(-c2nnc(SCC(=O)NC3CCCc4ccccc43)n2N)cc1 (stereo not given)
    -0.1	-1.6	-2	5.2	-6	2	.	.
54. O=C(Nc1ccc(N2CCOCC2)cc1)c1ccc2ncsc2c1
    -2.0	.	-3	-1.4	.	.	-2.1	3%
55. COc1ccc(C(=O)NCCS(=O)(=O)N2CCCC2)cc1
    -0.8	0.8	-7	2.5	3	-13	0.0	.
56. CC1=C(C)CC(C(=O)NCCc2ccc(F)cc2)C(C(=O)O)C1 (stereo not given)
    -0.3	?	-10	0.2	-1	-2	-4.0	.
57. COC(=O)CCc1n[nH]c(=O)[nH]c1=O
    0.8	0.9	-6	-4.3	1	7	-3.2	26%
58. O=C(/C=C/c1ccccc1O)c1ccco1
    1.6	-0.6	-4	-2.9	29	-28	3.1	.
59. CCOC(=O)NN1C(=O)c2ccccc2NC1c1cccs1 (stereo not given)
    -0.2	-1.1	-9	1.1	0	-7	-0.8	4%
60. CCOc1ccc(CN2CCCN(C)CC2)cc1
    0.4	1.7	-4	-3.9	0	49	-1.4	0%
